TRPML1 inh = blocks the human TRPML1 channel. activity change, negative = inhibition, % (test concentration not listed). Q9GZU1. TRPML1-inducible cells, Ca2+ dye fluorescence, FDSS; active compounds read low; inhibition of EC80 agonist-evoked calcium signal. 0.02% of 390,000 active; in the data active means activity change below about -50%; inconclusive means about -30% to -50%; inactive means above about -30%;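 note: stimulus is agonist 54-4 at its EC80 concentration; % is set by controls: 0 for no effect and ±100 for the full control effect; compound concentration not given in the record; the text of the record puts the active cut at -80%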
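Tet-induced TRPML1-DL cells loaded with Ca8 no-wash calcium dye were read kinetically on FDSS. Compound addition was followed by EC80 agonist 54-4 (4 uM final); inhibition was read over 110 s.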
PINK1 modulator = modulators of PINK1 expression | PINK1 immunofluorescence, high-content cytometry, 24 h | 0.2% of 410,000 active | Potency, µM (highest dose often 76.6 µM), inactives show top-dose activation (PINK1 increase), most hits filed as activators; active = well fitted activation curve with a large enough effect; inconclusive = small, poorly fitted or top-dose-only effect; inactive = flat fitted curve, though single readings scatter; cell line not stated here;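 note: potency is the fitted concentration of half-maximal effect; % of control where 0% means no effect; nearly all actives have a fitted effect of over 65% in size; a mitochondrial uncoupler was the plate control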
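Decision-based qHTS: stable cells, 24 h exposure to five compound concentrations, CCCP as control. Fixed cells stained for PINK1 plus nuclear, mitochondrial and cell markers, cytometer read.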
Six1-Eya2 blk = blocks human Six1 binding to Eya2 | AlphaScreen GST-Six1/His-Eya2 binding, biochemical; active compounds read low; control for the full effect not named in the record | activity change, % (concentration not given with the values) | AID 651725 | Q15475+O00167 | 0.56% of 360,000 active; in the data active = activity change below about -65%; inconclusive = about -30% to -65%; inactive = above about -30%; note: % is set by controls: 0 for no effect and ±100 for the full control effect
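Homogeneous AlphaScreen proximity assay pairing GST-Six1 with His-tagged Eya2 (added as 5X mix: 250 nM and 500 nM) in 50 mM Tris pH 8.0, 300 mM NaCl, 1 mM TCEP. Glutathione donor and nickel acceptor beads; 1 h, 37 °C, dark.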
TRPML1 ag = activates the human TRPML1 channel; TRPML1-expressing cells, Ca2+ dye fluorescence, FDSS; host cell line not named in the record; reference of the full effect not given here; AID 624414; activation, % (no concentration beside the values); 0.12% of 410,000 active; Q9GZU1; in the data active = activation above about 50%; inconclusive = about 30% to 50%; inactive = below about 30%; note: 0% is about no effect; the text of the record puts the active cut at 80%
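Calcium fluorescence on an FDSS kinetic reader gave the read-out. Tet-induced TRPML1-DL cells were plated overnight, dye-loaded (Ca8 with quencher, 45-90 min, room temperature, dark), then read 110 s after compound addition, and again 110 s after 4uM final 54-4 (EC80).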
D2 PAM = human D2 receptor positive allosteric modulation; 0.23% of 360,000 active; P14416; potentiation, % (test concentration not listed); DiscoveRx D2 beta-arrestin cells, luminescence, 90 min; 100% = 57 uM dopamine signal; active = potentiation of 50% or more; inconclusive = 30% to 50%; inactive = 30% or less;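 note: compound concentration not given in the record; tested on top of an EC20 dose of dopamine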
Target sequence (P14416 whole entry, looked up): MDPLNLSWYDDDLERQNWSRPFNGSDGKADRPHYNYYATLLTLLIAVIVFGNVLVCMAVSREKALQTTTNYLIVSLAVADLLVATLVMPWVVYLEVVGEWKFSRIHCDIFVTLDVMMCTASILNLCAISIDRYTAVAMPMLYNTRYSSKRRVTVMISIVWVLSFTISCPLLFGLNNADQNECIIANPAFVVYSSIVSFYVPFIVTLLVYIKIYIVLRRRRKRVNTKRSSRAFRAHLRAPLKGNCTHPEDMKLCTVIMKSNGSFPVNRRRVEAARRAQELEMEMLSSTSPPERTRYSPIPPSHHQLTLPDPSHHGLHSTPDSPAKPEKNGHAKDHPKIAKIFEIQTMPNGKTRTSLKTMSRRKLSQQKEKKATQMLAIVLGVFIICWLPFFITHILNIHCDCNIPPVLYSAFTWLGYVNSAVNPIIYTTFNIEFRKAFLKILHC
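PathHunter beta-arrestin assay in DiscoveRx D2 cells. Compounds were added with an EC20 of dopamine (50 nM final) for 90 min at 37 deg C. Luminescence was read 1 h after detection reagent, with 57 uM dopamine as the EC100 control.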
D2 ag = human D2 receptor agonism in beta-arrestin assay; DiscoveRx PathHunter D2 beta-arrestin, luminescence, 90 min; 100% = 57 uM dopamine signal; AID 624465; 0.084% of 360,000 active; P14416; activation, % (concentration not given with the values); in the data active = activation above about 40%; inconclusive = about 15% to 40%; inactive = below about 15%; note: compound concentration not given in the record; the text of the record calls up to 30% inactive
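DiscoveRx PathHunter D2 beta-arrestin cells (2,100/well) attached overnight, then compound-stimulated 90 min at 37 C in HBSS/10 mM HEPES/0.1% Tween-20 buffer; beta-galactosidase complementation read by luminescence after 1 h at ambient temperature. Dopamine 57 uM final (EC100) as control.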
Numbers without * were called inactive; ? = inconclusive; nt = no result given; [ ] = another dose, or the depositor's remark.

entry	molecule	PINK1 modulator	D2 PAM	TRPML1 ag	TRPML1 inh	Six1-Eya2 blk	D2 ag
1	COc1ccc(S(N)(=O)=O)cc1C(=O)NCCCN1CCN(c2ccccc2OC)CC1	-2.6%	-36	-0.2	4	5	8.3
2	NC(N)=NC(N)=Nc1cccc2ccccc12	0.2%	-3	0.3	-13	6	6.2
3	NC(=O)c1ccc(Cn2c(C(=O)c3ccc(Cl)cc3)c3ccccc3[n+]2[O-])cc1	0.2%	-11	-0.2	19	1	0.4
4	O=C(Nc1ccccc1F)N1CCC(NC(=O)C23CC4CC(CC(C4)C2)C3)CC1	-1.8%	-2	0.5	12	1	1.1
5	Cc1cccc(N(C(=O)CCC(=O)Nc2cc(C)on2)C(C(=O)NC2CCCC2)c2ccc(C)o2)c1 (stereo unspecified)	-2.0%	-8	0.9	0	-3	-2.4
6	CCSc1nsc(NC(=O)Nc2cccc(OC)c2)n1	?	-8	2.1	-9	4	4.7
7	COn1c(=O)c(-c2ccc(C)cc2)[n+]([O-])c2ccccc21	0.6%	-9	3.5	30	9	1.6
8	CCOC(=O)c1ccc2c(c1)nc(SCC(=O)N1CCCCC1)n2CC	0.6%	-12	-0.2	1	-12	0.5
9	Cc1cc(C(F)F)n2ncc(C(=O)NCCc3ccc(Cl)cc3)c2n1	-2.1%	-2	-0.1	-6	-9	-3.6
10	C=CC(C)n1c(Br)nc2c1c(=O)[nH]c(=O)n2C (stereo unspecified)	1.0%	14	-0.4	-26	-1	-0.5
11	CCCCn1c(N)c(N(CCOC)C(=O)c2ccc(S(=O)(=O)N3CCCCCC3)cc2)c(=O)[nH]c1=O	2.0%	1	-0.8	25	3	-5.0
12	O=C(CSC1=NS(=O)(=O)c2cc(F)ccc2N1)Nc1ccccc1	-1.9%	-7	-0.3	14	11	0.4
13	Cc1ccc(C)c(CS(=O)(=O)c2cn(CC(=O)N3CCCCC3)c3ccccc23)c1	15%	24	1.3	16	1	-0.4
14	COc1c(NC(C)=O)c2ccccc2c2ccccc12	0.1%	3	1.2	6	4	-2.0
15	CCN(Cc1ccccc1)S(=O)(=O)c1ccc(-c2coc(C)n2)cc1	-4.2%	nt	4.8	47	nt	nt
16	COc1ccc(NC(=O)c2ccccc2Oc2ccccc2)cc1	-0.2%	-2	nt	nt	6	-2.1
17	COCCCNC(=O)Cn1c(=O)n(CCCCCC(=O)Nc2ccccc2)c(=O)c2sccc21	2.6%	-16	0.8	-5	8	-3.8
18	COc1ccc(NC(=O)C2c3ccccc3OCC(=O)N2CCc2ccccc2)cc1 (stereo unspecified)	-0.3%	nt	-0.8	nt	0	nt
19	COc1ccc(-c2cc(C(=O)NCCN3CCOCC3)c3ccccc3n2)cc1OC	-1.8%	-15	0.0	-10	-5	-1.0
20	O=C(Nc1cccc(C(F)(F)F)c1)C1CC(=O)N(CCc2ccccc2)C1 (stereo unspecified)	4.4%	-33	-1.1	-4	18	0.8
21	CS(=O)(=O)N1CCN(Cc2ccccc2C(F)(F)F)CC1	-0.7%	-1	-0.5	-14	6	-1.9
22	CCCN1CCN(CC(=O)Nc2nncs2)CC1	0.2%	-5	0.6	7	9	-2.6
23	C[C@@H](C(=O)Nc1ccc2ccccc2c1)[C@@H]1C[C@@]1(C)[C@@H](NC(=O)c1cccnc1)c1ccccc1	1.3%	-17	0.3	20	2	-2.1
24	CN1CCN(/N=C/c2nc(-c3ccc(Cl)cc3)n3ccccc23)CC1	-1.7%	-15	0.5	-8	-9	-2.3
25	O=C(/C=C/c1ccc(Cl)cc1Cl)N1CCN(c2ccc([N+](=O)[O-])c(N3CCOCC3)c2)CC1	1.6%	-13	-0.2	-10	-5	-1.7
26	CCCCOC(=O)Nc1ccc(N(C)C)cc1	1.2%	-4	-0.5	-8	?	1.1
27	Cc1cc(C(=O)NP(=O)(N2CC(C)OC(C)C2)N2CC(C)OC(C)C2)c(C)n1C1CC1 (stereo unspecified)	3.1%	-2	0.0	-12	0	0.1
28	CCCCCCC(=O)Nc1c2c(nc3ccccc13)N(C)CC2	-1.5%	-12	4.4	-12	4	-2.4
29	CC1(C)OC(=O)C(=CNc2ncccn2)C(=O)O1	2.0%[38.3 µM]	-4	0.6	-10	-2	-2.5
30	CCOC(=O)C1=CCN(S(=O)(=O)c2ccc(Cl)cc2)C1c1ccc(C)cc1 (stereo unspecified)	2.5%	-5	2.5	2	8	-1.8
31	CC1(C(=O)NC(=S)N(Cc2ccccc2)c2ccccn2)CC1(Cl)Cl (stereo unspecified)	-0.7%	12	1.3	13	9	4.1
32	CCOC(=O)NN1C(=O)c2ccccc2NC1C (stereo unspecified)	-0.2%	-7	3.2	21	9	8.3
33	CC1=NN(c2ccc(Cl)c(C(=O)O)c2)C(=O)C1	2.3%	-6	0.1	13	-9	2.2
34	C#CCN(C[C@@H](CC(C)C)NC(=O)OC(C)(C)C)S(=O)(=O)c1ccc(Br)cc1F	?	-4	7.7	-8	7	-2.1
35	Cc1nc2c(C)cccn2c1C(=O)c1ccccc1	0.3%	-6	-1.1	4	-5	-2.6
36	COc1cccc(CNCCSc2nnnn2C)c1OCc1ccccc1	1.0%	nt	-1.2	9	nt	nt
37	S=C(Nc1ccccc1)N1CCn2cccc2C1c1cccnc1 (stereo unspecified)	-1.2%	-14	-0.4	0	-3	3.0
38	Cc1cccc(C)c1NC(=O)c1nc(SC(C)C)ncc1Cl	3.7%	nt	2.0	-7	nt	nt
39	O=C(CCn1c(=O)[nH]c2ccsc2c1=O)N1CCc2ccccc2C1	-0.4%	4	0.4	5	2	-3.7
40	O=c1[nH]c2cccnc2n1Cc1ccccc1	2.7%	-29	-1.0	-14	-1	-3.4
41	Cc1cc(-c2ccc(Br)cc2)n[nH]1	1.2%	-5	-1.1	-6	-1	0.8
42	CC(C)(C)NC(=O)NC12CC3CC(CC(C3)C1)C2	2.1%	-14	0.5	1	3	-3.3
43	Cc1cccc(C)c1Nc1nc2ccccc2o1	8.5%	-1	-0.3	-6	-1	-1.0
44	COc1ccc(CC(=O)Oc2ccc(C(C)C)cc2)cc1S(=O)(=O)N1CCOCC1	2.7%	-11	0.8	14	3	1.8
45	CC(C)(C)c1ccc(C(=O)NNc2cc(N3CCCCC3)nc(N3CCCCC3)n2)cc1	0.3%	-9	0.7	-4	-9	-5.3
46	COc1ccc2[nH]c(=O)c(CN(C(=O)c3cccnc3)c3ccc(C)cc3)cc2c1	0.2%	-22	0.1	8	9	-2.9
47	COc1cc(CC(=O)OCc2ccccc2F)cc(OC)c1OC	-0.2%	2	1.7	7	-2	2.6
48	COc1ccc(-c2noc(CN(C(=O)c3ccc(C)cc3C)C(C)C)n2)cc1	2.0%	nt	0.0	37	nt	nt
49	CN(CC(=O)Nc1ccc(F)cc1)CC(=O)N1CCCC1	1.2%	-7	-0.7	1	12	-2.1
50	Cc1nn(C)c(C)c1NC(=O)Nc1cccc(C(F)(F)F)c1	20%	-14	1.8	-2	6	-0.7
51	COc1ccc(CCn2c(=N)c(S(=O)(=O)c3ccc(Cl)cc3)cc3c(=O)n4ccccc4nc32)cc1	?	-8	0.4	8	6	-0.6
52	Cc1ccccc1NC(=O)CSc1ccsc1[N+](=O)[O-]	-0.7%	-14	1.8	9	?	2.9
53	COc1ccc(OC)c(NC(=O)C2CCCN2C(=O)C2CCC(C)CC2)c1 (stereo unspecified)	0.3%	-1	1.3	-5	0	-5.2
54	COC(=O)CC1C(=O)NCCN1C(=O)c1sc2ccccc2c1Cl (stereo unspecified)	0.3%	-16	-0.5	10	2	-3.9
55	Cc1cccc(NC(=O)CSc2nnc(-c3ccccc3)n2N)c1C	-0.5%	1	1.2	-6	0	-0.5
56	CC(C)Oc1ccc(CCc2n[nH]c(=S)n2-c2ccccc2)cc1	-1.6%	-14	-0.7	13	-19	1.8
57	O=C(COc1ccc(Br)cc1)NN1C(=O)c2ccccc2C1=O	-0.1%	-9	0.0	15	-4	-2.7
58	Cc1ccsc1/C=C1/NC(=O)N(Cc2ccc(F)cc2)C1=O	10%	-8	1.4	-21	-2	-1.1
59	CN(C)c1ccc(C=Nc2ccccc2)cc1	-1.0%[38.3 µM]	-7	-0.3	28	-3	1.0
